Source: PubChem BioAssay
AmpC inh no det – inhibitors of E. coli AmpC beta-lactamase without detergent | P00811 | AmpC nitrocefin hydrolysis, absorbance 480 nm, no detergent; potencies from a single point are estimates | Potency, µM (highest dose often 28.7 µM), inactives show at the highest dose activity change, negative = inhibition | AID 585 | 1.8% of 71,000 active; active = falling curve, for most hits resting on a single point; inconclusive = weak or doubtful change; inactive = flat or rising curve; also: % of control where 0% means no effect; about half of the hits show no inhibition at the top dose; a quarter of the inactives give rising signals
Target sequence (P00811 whole entry, looked up): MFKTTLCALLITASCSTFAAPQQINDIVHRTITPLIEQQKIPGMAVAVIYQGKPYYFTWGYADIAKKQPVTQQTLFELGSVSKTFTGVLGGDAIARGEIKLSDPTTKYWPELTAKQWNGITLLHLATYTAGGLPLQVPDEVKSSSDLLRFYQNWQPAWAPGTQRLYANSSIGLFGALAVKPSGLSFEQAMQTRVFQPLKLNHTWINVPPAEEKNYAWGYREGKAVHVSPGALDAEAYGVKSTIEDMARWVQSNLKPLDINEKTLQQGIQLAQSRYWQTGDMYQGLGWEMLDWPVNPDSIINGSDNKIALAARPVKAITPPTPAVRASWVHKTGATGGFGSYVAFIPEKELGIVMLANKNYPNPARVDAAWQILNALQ
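Enzyme, pH 7.0 phosphate. Compound titrations were pre-incubated with AmpC for 15 min at room temperature before nitrocefin (stock 800 uM) addition; product formation was recorded at 480 nm every 20 s for 4 min.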
Starred values were filed as active, the others as inactive; ? = inconclusive; [ ] = dose if it differs, or a comment. Potency is read from the fitted curve at half-maximal effect. An excerpt; rates above refer to the full screens.

Compound	AmpC inh no det
O=C(NCCC1=CCCCC1)C1CCN(c2nnc(-n3cccc3)s2)CC1	49%
CCOC(=O)N1CCN(c2cc(C)nc3nc(C)nn23)CC1	2%
CN(C)c1nc(N)nc(/C(C#N)=C/C2CC3C=CC2C3)n1 (stereo not drawn)	12%
Cc1cc(NC(=O)c2cccc(N3C(=O)CCC3=O)c2)no1	-2%
COc1ccc(C(=O)c2ccc(OC)c(N)c2)cc1N	-4%
Cc1ccc2[nH]cc(C(=O)CN3CCC4(CC3)OCCO4)c2c1	9%
Cc1cc(C(F)F)n2nc(C(=O)Nc3ccccc3F)nc2n1	8%
COc1cc(-c2cc3nc(C)c(C)c(=O)n3[nH]2)cc(OC)c1OC	-8%
CCOC(=O)c1cccc(NC(=O)CSc2nnc(C)n2Cc2ccccc2)c1	124%
CCOc1ccc(-c2nnn(CC(=O)c3cc(OC)ccc3OC)n2)cc1	35%
CCc1nc(C)c(C#N)c2cc(OC)c(OC)cc12	9%
Cc1ccc(Nc2nc3nonc3[nH]c2=O)cc1C	-23%

Further entries follow:
Compound	AmpC inh no det
CCN(C1CCCCC1)S(=O)(=O)c1ccc(C(=O)O)cc1	7%
CCOC(=O)CSc1nnc(-c2cccc(Cl)c2)n1CC	15%
COC(=O)c1ccc(CSc2nnc(N)s2)cc1	1%
COc1ccc(-n2c(=O)c(-c3cc(F)cc(F)c3)nc3cnc(N4CCOCC4)nc32)cc1	9%
COCc1[nH]nc2c1C(c1ccc(F)cc1F)C(C#N)=C(N)O2 (stereo not drawn)	-6%
CCc1nnc(NC(=O)CCC(=O)N2CCN(CCc3ccccc3)CC2)s1	-5%
Cc1ccc(NC2=CC(=O)CC(c3ccco3)C2)c(N)c1 (stereo not drawn)	0%
N#CCCNC(=O)CCN1CCOCC1	33%
CCOC(=O)C(NC(=O)CC)(Nc1ccccc1OC)C(F)(F)F (stereo not drawn)	23%
O=C(CN1CCOCC1)Nc1ccc(Oc2ccccc2)cc1	62%
COC(=O)c1ccc(CN2CCN(Cc3ccc(C(=O)OC)o3)CC2)o1	4%
CC(=O)[O-].CC(=O)[O-].CC(=O)[O-].[Cr+3]	-7%

The listing continues:
Compound	AmpC inh no det
c1ccc(Cn2c(SCc3cn4cccnc4n3)nnc2-c2ccco2)cc1	4%
CCOC(=O)C1CCN(S(=O)(=O)C(F)(F)c2nc3ccccc3s2)CC1	36%
COc1c(C)cc(Br)cc1C(=O)O	4%
CCOC(=O)C1CCN(C(=O)CN(Cc2ccccc2)S(C)(=O)=O)CC1	20%
CCOC(=O)Cn1cnc2c(C#N)c3n(c2c1=O)CCCCC3	11%
O=C(O)c1ccc2c3c(cccc13)C(=O)N(c1ccccc1O)C2=O	-14%
CC1(C)CC(CCNC(=O)c2ccco2)CC(C)(C)N1	-7%
CCCOc1ccc(C(C)(O)CN2CCOCC2)cc1 (stereo not drawn)	6%
NC(=O)c1ccc(Br)c(S(=O)(=O)N2CCCCC2)c1	14%
N#Cc1c(-c2ccccc2)cc(C2CC2)nc1N	0%
Nc1nc(SCC(=O)N2CCCC2)[nH]c(=O)c1-c1ccccc1	2%
Cc1ccc(-n2nc3c(c2NC(=O)c2ccc(S(=O)(=O)N4CCOCC4)cc2)CSC3)c(C)c1	56%

Additional compounds follow.
Compound	AmpC inh no det
COc1cccc(C(=O)CSc2nnc(COc3cccc4cccnc34)o2)c1	46%
COc1cccc(-n2nnc3c(=O)n(Cc4ccc(Cl)cc4)cnc32)c1	-21%
CC(NC(=O)CN1C(=O)COc2ccccc21)c1ccccc1 (stereo not drawn)	1%
Nc1ccc2oc(-c3cccs3)nc2c1	7%
CCOC(=O)N1CCN(c2c(N3CCc4ccccc4C3)c(=O)c2=O)CC1	?
CN(C)CCCSc1nc2ccccc2[nH]1	-12%[5.75 µM]
Fc1ccc(Cn2nnnc2C(c2cccs2)N2CCCCCC2)cc1 (stereo not drawn)	6%
COc1nc(NCCC2=CCCCC2)nc(OC)n1	7%
NC1=NC(=Nc2ccccc2)c2ccccc21	-19%
O=C(CCCOc1ccc(Cl)cc1)N1CCCCCC1	84%
O=C(O)C1C2C=CC(C2)C1C(=O)NCc1ccc2c(c1)OCO2 (stereo not drawn)	6%
O=C(NC1CCS(=O)(=O)C1)c1ccc(-c2ccc(Br)cc2)o1 (stereo not drawn)	35%

(more compounds)
Compound	AmpC inh no det
Cn1ccnc1SCC(=O)Nc1sccc1C#N	-8%
CCCn1c(SCC(=O)Nc2nccs2)nnc1-c1cccnc1	-5%
O=C(CN(C(=O)CCC(=O)Nc1nccs1)c1cccc(F)c1)NCC1CCCO1 (stereo not drawn)	12%
CC(C)C[C@H](NC(=O)[C@@H](NC(=O)N[C@@H](Cc1ccccc1)C(=O)O)[C@H]1CCN=C(N)N1)C(=O)N[C@H](C=O)Cc1ccccc1	69%
CN(Cc1ccccc1)C1CC(=O)N(c2ccc(C(=O)O)cc2)C1=O (stereo not drawn)	-4%
Cc1cc(NC(=O)CN2CCCCCCC2)no1	-12%
COc1ccc2c(c1)N(CC[C@H]1CCCCN1C)c1ccccc1S2	9%[5.75 µM]
CCC1CCCCN1S(=O)(=O)c1ccc(S(=O)(=O)N(Cc2cccs2)C2CC2)cc1 (stereo not drawn)	-16%
Cc1cc(=O)n2c3c(sc2n1)C(=O)N(Cc1ccccc1)C3=O	-10%
O=C(CN1C(=O)C2CCc3[nH]c4ccccc4c3C2C1=O)N1CCCC1 (stereo not drawn)	27%
COC(C)(C)c1cc(C(C)(C)C)nc(N)n1	2%
COc1ccccc1CC(=O)NCc1ccc2c(c1)OCO2	-2%

Following part:
Compound	AmpC inh no det
CN(Cc1nc(-c2cccnc2)no1)S(=O)(=O)c1ccc(Br)cc1	10%
Clc1ccc2nc(CN3CCCCC3)cn2c1	-4%
CCOc1ccc2cc(S(=O)(=O)N3CCN(C)CC3)ccc2c1	53%
COc1ccc(CNC(=O)c2c(O)c3ccccc3n(C)c2=O)cc1OC	64%
CCOC(=O)C1=C[C@@]2(CC)CCCN3CCc4c(n1c1ccccc41)[C@H]32	105%
CCCn1c(=O)c(C(=O)Nc2ccncc2)c(O)c2ccccc21	-13%
Cc1cccc(CNc2nc(-c3ccoc3)nc3ccccc23)c1	6%
COc1ccc(N2CCN(C(=O)CCCOc3cc(=O)n(C)c4ccccc34)CC2)cc1	120%
CC(=O)Oc1ccc(N(C(C)=O)S(=O)(=O)c2cccs2)cc1	3%
O=C(c1csnn1)N1CCC[C@@]2(CCN(c3cccc(-c4ccccc4)c3)C2)C1	73%
CC(C)CCn1nnnc1C(c1ccc(F)cc1)N1CCC(C(N)=O)CC1 (stereo not drawn)	112%
O=C(NC1CC2CCC1C2)C1CCN(S(=O)(=O)c2ccc(-c3nn[nH]n3)cc2)CC1 (stereo not drawn)	-18%

Continued:
Compound	AmpC inh no det
CC1CCN(CCCNC(=O)COc2cc(=O)n(C)c3ccccc23)CC1	-14%
CN1CCc2cc3c(cc2[C@@H]1[C@@H]1C(=O)Oc2c1ccc1c2OCO1)OCO3	9%
COC(=O)c1ccccc1NC(=O)c1cc2sccc2n1C	-1%
CCCCC(CC)COC(=O)CCCCC(=O)OCC(CC)CCCC (stereo not drawn)	-12%
O=C(Cn1cc(C(F)(F)F)ccc1=O)N1CCN(S(=O)(=O)c2ccc(Cl)cc2)CC1	36%
Cc1oc(-c2cccc(Cl)c2)nc1CN1CCC(C(=O)N2CCN(c3ccccc3F)CC2)CC1	76%
CCN(CC)CCCNC(=O)C1c2ccccc2Oc2ccccc21	0%
CN1/C(=C\C(=O)c2ccco2)c2ccccc2CC1(C)C	39%
Cn1c(=O)c2c(nc(SCC(=O)NCC3CCCO3)n2C)n(C)c1=O (stereo not drawn)	-11%
S=P(C1CCCCC1)(C1CCCCC1)[C@H](c1cccnc1)N1CCCC1	2%[5.75 µM]
COc1ccc(S(=O)(=O)Nc2ccc(CC#N)cc2)cc1	-15%
Cc1c(C(=O)OCCOC(C)C)[nH]c2c1C(=O)CC(c1ccco1)C2 (stereo not drawn)	16%

(more compounds)
Compound	AmpC inh no det
COc1cc(SC)ccc1C(=O)Nc1ccccc1C#N	5%
Cc1ccc(C(=O)C2CN3CCC2CC3)cc1 (stereo not drawn)	-4%
CN(C)CCNS(=O)(=O)c1ccc(Cl)cc1	-4%
Cn1c(=O)c2[nH]c(CCCCc3nc4c([nH]3)c(=O)n(C)c(=S)n4C)nc2n(C)c1=S	0%[5.75 µM]
CC1CCc2[nH]nc(C(=O)O)c2C1 (stereo not drawn)	-8%
Cc1ccc2nc3ccc(N4CCCC4)nn3c(=O)c2c1	10%
O=C(O)[C@H]1[C@H]2CN[C@H](C(=O)O)[C@H]21	4%
NC(=O)CSc1nc(O)cc(=O)n1-c1ccccc1	-15%
Cn1c(=O)c2c(nc(NCCCN3CCOCC3)n2Cc2ccc(Cl)cc2Cl)n(C)c1=O	55%
COC(=O)Cn1c(=N)n(CCN2CCCCC2)c2ccccc21	-13%
O=C(CCOc1ccccc1)Nc1ccc(S(=O)(=O)N2CCCC2)cc1	4%
Cc1sc2nc(CN3CCOCC3)nc(NS(=O)(=O)c3ccc4c(c3)OCCO4)c2c1C	105%

(next part)
Compound	AmpC inh no det
COC(=O)CSc1nc2ccccc2o1	2%
O=C(Nc1ccc2oc(-c3ccc(F)cc3)nc2c1)c1ccccc1F	-11%
COc1ccc(CCn2c(-c3ccco3)nc3nc4ccccc4nc32)cc1	60%
C=CCn1c(NCc2ccc(N(C)C)cc2)nc2ccccc21	4%
COC(=O)c1ccc2c(=O)n(CCCCCC(=O)N3CCN(c4ccccc4)CC3)c(=O)[nH]c2c1	96%
C[N+]1(C)C[C@@H](O)C[C@@H]1C(=O)[O-]	-4%[12.8 µM]
O=c1c(-c2cccs2)nc2cnc(N3CCNCC3)nc2n1Cc1cccs1	59%
CCOc1ccc(NC(=O)CN2CCN(CC(=O)c3ccc(OC)c(OC)c3)CC2)cc1	122%
CC(C)[C@](N)(C(=O)O)c1ccccc1	15%[5.75 µM]
CCCC(=O)Nc1cc(=O)[nH]c2ncnn12	-15%
CCN(CC)CCCN(C(=O)c1cccs1)c1nc(-c2ccc(OC)cc2)cs1	103%
COc1ccc(CCNC(=O)C2CCN(S(=O)(=O)N3CCCCCC3)CC2)cc1OC	89%

Part of the list above in another layout.
> O=c1c(-c2cccs2)nc2cnc(N3CCNCC3)nc2n1Cc1cccs1
  AmpC inh no det: 59%

> CCOc1ccc(NC(=O)CN2CCN(CC(=O)c3ccc(OC)c(OC)c3)CC2)cc1
  AmpC inh no det: 122%

(more compounds)
Compound	AmpC inh no det
O=C(CSc1nnc(-c2ccccc2)o1)Nc1ccccc1F	4%
CC(C)OCCCn1c(=S)[nH]c2ccc(N3CCOCC3)cc2c1=O	28%
Cc1noc(C(=O)N2CCN(c3ccc(F)cc3)CC2)c1Cl	14%
CC(C(=O)Nc1cccnc1)N1C(=O)C2C3C=CC(C3)C2C1=O (stereo not drawn)	18%
O=C(NCC(c1cccnc1)N1CCN(c2ccc(F)cc2)CC1)Oc1ccccc1 (stereo not drawn)	80%
Cc1ccc(CNC(=O)C2CCCN(S(C)(=O)=O)C2)cc1 (stereo not drawn)	42%
CC1(C(=O)NC2CCCCCCC2)CCC(=O)N1Cc1cccnc1 (stereo not drawn)	4%
CC(C)c1nnc(NC(=O)CSc2ncn[nH]2)s1	-24%
COC(=O)C1=C(C)N(c2ccc(Cl)c(Cl)c2)C(=O)C1	12%
Cc1ccc2cccc(NC(=O)c3ccc(Br)o3)c2n1	7%
N#Cc1ccccc1Cn1c(=O)n(CCCC(=O)NCc2ccc3c(c2)OCO3)c(=O)c2ccccc21	27%
O=C(Nc1ccc2c(c1)OCO2)c1cnn2c1NC(c1ccco1)CC2C(F)(F)F (stereo not drawn)	-24%

Continuation:
Compound	AmpC inh no det
Cc1cc(C(=O)COc2cccc3cccnc23)c(C)n1C	15%
O=C(CCC1N=C2c3ccccc3N=C(SCc3ccc(Cl)cc3)N2C1=O)NCc1ccco1 (stereo not drawn)	108%
COc1ccc(N(Cc2cc3ccc(C)cc3[nH]c2=O)C(C)=O)cc1	33%
CCn1c(SCC(=O)C(C)(C)C)nnc1-c1ccccc1OC	20%
COc1cc(S(=O)(=O)N2CCOCC2)ccc1NC(=O)COC(=O)c1ccccn1	12%
CCOC(=O)N1CCN(c2cc(=O)n(-c3ccccc3Cl)c(=O)[nH]2)CC1	9%
COC(=O)c1c(-c2cccc(C)c2)csc1N	0%
CCC1(C)Cc2nc3sc(C(=O)O)c(N)c3cc2CO1 (stereo not drawn)	-5%
CCC/C=C(\CCC)C(NC(=O)c1cccs1)c1ccc(C(=O)OC)cc1 (stereo not drawn)	-2%
O=C(NCc1ccccn1)c1ccc(Br)s1	12%
CCn1c(CC(=O)Nc2cccc(OC)c2)nnc1SCC(=O)N1CCN(c2ccccc2)CC1	116%
Clc1ccc(CSc2nncn2-c2ccccn2)cc1	16%
O=C(OC(C(=O)NCC1CCCO1)c1ccccn1)c1cccs1 (stereo not drawn)	6%

A draw from above in order of molar mass, rising.
Compound	AmpC inh no det
Cc1cc(C(=O)COc2cccc3cccnc23)c(C)n1C	15%
CCn1c(SCC(=O)C(C)(C)C)nnc1-c1ccccc1OC	20%
COc1cc(S(=O)(=O)N2CCOCC2)ccc1NC(=O)COC(=O)c1ccccn1	12%
O=C(CCC1N=C2c3ccccc3N=C(SCc3ccc(Cl)cc3)N2C1=O)NCc1ccco1 (stereo not drawn)	108%
